T cruzi repl: inhibitors of intracellular T. cruzi growth, primary screen, luminescence, NIH3T3 host cells; T. cruzi beta-gal in NIH3T3, 90 h; actives 1.4% (n = 300,000); AID 1885, 2009; inhibition, % (test concentration not listed);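 active = mean inhibition across valid replicates above about 55%, limit read from the data; inconclusive = mean below that limit but half or more replicates reach it; inactive = mean below it, under half of replicates reach it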;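 note: signal also drops with host cell toxicity which is not excluded here; 0% = plate median of DMSO wells and 100% = zero luminescence signal; higher percent means less beta-gal luminescence so fewer parasites; stock transfer was 50 nL into about 50 µL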
AF4-AF9 inh: inhibitors of AF4 peptide binding to AF9, primary screen, biochemical, AlphaScreen, biotin-AF4 peptide, FLAG-AF9, single point | Protein AF-9 (Homo sapiens), P42568 | inhibition, % at 10 µM | actives 0.47% (n = 350,000);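 active = every replicate reaching a set inhibition limit, whatever the replicate mean, cut at about 25% in these data; inconclusive = mean inhibition reaches that limit but some replicates miss it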;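 note: 0% = plate neutral control median and 100% = total signal loss; the record names both 10 and 1 µM as test concentration; the first replicate is given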
Target sequence (P42568 whole entry, looked up): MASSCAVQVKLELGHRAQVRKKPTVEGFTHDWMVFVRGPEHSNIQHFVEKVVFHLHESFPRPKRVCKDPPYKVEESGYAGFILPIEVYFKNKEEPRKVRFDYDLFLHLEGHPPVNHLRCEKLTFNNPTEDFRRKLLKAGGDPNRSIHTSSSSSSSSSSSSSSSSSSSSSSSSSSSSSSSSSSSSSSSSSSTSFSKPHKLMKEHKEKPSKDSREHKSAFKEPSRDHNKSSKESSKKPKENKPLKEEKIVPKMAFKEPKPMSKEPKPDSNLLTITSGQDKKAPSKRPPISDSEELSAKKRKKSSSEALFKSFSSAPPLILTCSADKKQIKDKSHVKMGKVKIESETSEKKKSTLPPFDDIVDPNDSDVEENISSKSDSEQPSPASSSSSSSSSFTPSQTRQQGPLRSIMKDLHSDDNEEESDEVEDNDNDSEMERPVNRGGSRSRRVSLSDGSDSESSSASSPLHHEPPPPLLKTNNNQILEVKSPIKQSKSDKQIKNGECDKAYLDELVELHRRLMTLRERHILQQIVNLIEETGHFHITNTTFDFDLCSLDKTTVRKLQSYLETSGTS
FGF22 binding: binders of human FGF22 protein, primary screen, FGF22 synaptogenesis inhibitor project, biophysical, thermal shift, single point | Fibroblast growth factor 22 (Homo sapiens), Q9HCT0 | recombinant FGF22 thermal shift, SYPRO orange fluorescence; percent of sucrose octasulfate shift, DMSO zero | calls only at 9.99 µM | actives 1.5% (n = 340,000) | AID 651658, 2012;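 active = melting point raised past a set limit in the mean and every replicate; inconclusive = no clear call; three in four hits are not shown here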
Target sequence (Q9HCT0 whole entry, looked up): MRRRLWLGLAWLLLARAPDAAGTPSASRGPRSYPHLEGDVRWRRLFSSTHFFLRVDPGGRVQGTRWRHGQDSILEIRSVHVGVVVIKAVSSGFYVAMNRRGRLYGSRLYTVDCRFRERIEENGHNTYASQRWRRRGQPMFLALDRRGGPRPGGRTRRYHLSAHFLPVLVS
RanGTP-Imp inh: inhibitors of RanGTP-importin-beta interaction, primary screen, biochemical, FRET, CFP-Ran, YFP-importin-beta, homogeneous; actives 1.1% (n = 300,000); cell-free CFP-Ran/YFP-importin-beta FRET ratio; inhibition, % (concentration not given with the values);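 active = most replicates above 15%; inconclusive = exactly half above 15%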;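 note: 0% = DMSO wells and 100% = Ran loaded with GDP instead of GTP; wells of about 40 µL received 100 nL stock; the first replicate is given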
ALR inh: inhibitors of human ALR sulfhydryl oxidase, primary screen, biochemical, H2O2 detection, HRP-luminol luminescence, single point; FAD-linked sulfhydryl oxidase ALR (Homo sapiens), P55789; purified ALR, DTT oxidation; inhibition, % (no concentration beside the values); actives 3.8% (n = 290,000);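 active = mean and each replicate at 75% or more; inconclusive = only one of the two met; inactive = neither met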;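 note: stock transfer was 7.5 nL into about 7.5 µL; 0% = neutral wells and 100% = wells with inactivated enzyme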
Target sequence (P55789 whole entry, looked up): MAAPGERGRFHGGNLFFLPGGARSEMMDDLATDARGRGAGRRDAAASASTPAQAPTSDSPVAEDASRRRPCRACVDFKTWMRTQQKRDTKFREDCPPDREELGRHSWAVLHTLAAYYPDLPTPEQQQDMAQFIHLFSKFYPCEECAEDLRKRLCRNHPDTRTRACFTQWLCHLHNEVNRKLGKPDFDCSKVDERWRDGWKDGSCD
Beta apoptosis: inhibitors of cytokine-induced beta cell apoptosis, primary screen, luminescence; INS-1E cytokine-induced death, ATP luminescence, 48 h; percent of positive-control rescue, neutral wells zero; protection from apoptosis, % (test concentration not listed); actives 0.8% (n = 300,000);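 active = all replicates at 75% or more, or half of them and the mean; inconclusive = half reach 75% but not the mean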;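 note: 0% = cytokine-treated negative control wells and 100% = positive control rescue; higher means more ATP so stronger rescue from cytokine killing; wells of about 40 µL received 100 nL stock; the first replicate is given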
rRNA inh HTS: reduced GFP signal of wild-type E. coli, primary screen, bacterial rRNA inhibitor project, GFP/RFP fluorescence, OD600, single point; actives 1.6% (n = 350,000); AID 720706, 2013; E. coli WT GFP vs humanized-ribosome RFP mutants, 24 h; hits give low values; DMSO median 0, no signal -100; GFP signal change (wild-type ribosome), % (concentration not given with the values);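 active = significant combined selectivity score with lowered wild-type GFP, culture density cut under 30%, mutant RFP and density less affected; inactive = any of these conditions unmet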; note: one replicate is shown; some compounds called inactive have numbers as strong as hits
Calb FLC: C. albicans growth inhibition with fluconazole, primary screen, CaCi-2 strain, Alamar Blue fluorescence; actives 0.57% (n = 300,000); AID 1979, 2009; C. albicans CaCi-2 (fluconazole-resistant clinical isolate) + fluconazole, 48 h; growth inhibition, % (no concentration beside the values);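 active = most replicates above 75%; inconclusive = exactly half above 75%; inactive = most below 75%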;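 note: all wells also contain fluconazole at 8 µg/ml as a sub-toxic cotreatment; 0% = median of DMSO wells and 100% = median of geldanamycin control wells; wells of about 8 µL received 7.5 nL stock; the first replicate is given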
rRNA inh HTS OD600: further read-out of rRNA inh HTS, marked with its call; OD600 change, %; measured here: OD600 growth;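 optical density of the mix in the first replicate; 0 = DMSO median and -100 = no signal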
rRNA inh HTS RFP: also measured in rRNA inh HTS; calls as there; RFP signal change, %; measured here: RFP humanized mutant strains;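 first replicate; 0 = DMSO median and -100 = no signal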
Active calls of the source: *; i = inactive; ? = inconclusive; nt = not tested or not shown.

SMILES	T cruzi repl	AF4-AF9 inh	FGF22 binding	RanGTP-Imp inh	ALR inh	Beta apoptosis	rRNA inh HTS	rRNA inh HTS OD600	rRNA inh HTS RFP	Calb FLC
CC(=O)Nc1ccc(C(=O)/C=C/c2ccco2)cc1	2	nt	nt	-2.9	-1	-4	nt	nt	nt	-3
CCOc1ccccc1-c1nc(-c2ccc(NC(=O)c3ccc(Br)o3)cc2)no1	34	nt	nt	4.7	-3	17	nt	nt	nt	-6
Cc1ccc(NC(=S)NC(=O)C2CCC2)cc1C	-1	1.1	i	-0.9	15	-4	3	-5	-4.1	10
COc1cccc(CC2(CO)CCN(Cc3cn(C)nc3C)CC2)c1	-2	1.1	i	9.9	0	-2	24	19	2.3	1
COc1cc(C2OC(=O)c3ccccc3S2)cc(OC)c1OC (centres undefined)	-9	-6.7	i	2.7	8	0	13	9	1.8	-16
O=C(COc1ccc(Cl)cc1)NC1=NN(c2ccccc2)C(=O)C1	-22	nt	nt	3.6	19	-1	nt	nt	nt	17
N#Cc1ncc(-c2ccc3c(c2)OCCOCCOCCOCCOCCO3)nc1C#N	5	nt	nt	-0.3	5	-1	nt	nt	nt	-4
COc1ccccc1N(CC(=O)NCCc1ccccc1)C(=O)CCC(=O)Nc1nccs1	-1	0.9	nt	-0.7	-3	3	1	-9	3.7	-1
COCCN(C(=O)Cc1cccs1)C(C(=O)NCc1ccc(OC)cc1)c1ccc(C(C)C)cc1 (centres undefined)	22	nt	nt	-2.9	-3	1	nt	nt	nt	4
O=C1C2=C(c3ccccc31)[N+](=O)[C@@H]1CCCC[C@@H]1N2[O-]	-6	-38	i	5.3	nt	-15	-14	1	5.2	0
Cc1cccc(OCC(=O)NCC(=O)N=Nc2c(O)[nH]c3ccc([N+](=O)[O-])cc23)c1	5	1.0	i	-0.4	nt	-5	-6	3	-3.3	15
COc1ccccc1CN(Cc1ccco1)S(=O)(=O)c1ccc(-n2cnnn2)c(OC)c1	14	9.3	i	-2.5	-6	3	-19	-17	2.8	0
CC(C)(C)Nc1nc(Nc2ccc([N+](=O)[O-])cc2)nc(NC(C)(C)C)n1	17	4.8	nt	3.2	-6	nt	16	5	2.3	3
Cc1ccc(NC(=O)CCc2ccc(C)o2)c(Br)c1	4	5.1	i	-1.4	21	3	12	1	2.7	-3
COC(=O)/C=C1/S/C(=N/NC(=O)c2ccccc2C)NC1=O	-12	nt	nt	0.7	2	-4	nt	nt	nt	-4
CC(C)CN1CC(C(=O)O)CC1=O (centres undefined)	-8	-0.2	i	1.6	-6	-5	20	19	-0.4	-17
COc1ccc(CCN2C(=O)CC(Nc3ccc(N4CCOCC4)cc3)C2=O)cc1OC (centres undefined)	nt	nt	nt	-1.9	99*	-1	nt	nt	nt	-1
Cc1ccc(C)c(S(=O)(=O)NC(Cc2c[nH]c3ccccc23)C(=O)O)c1 (centres undefined)	2	-3.5	i	1.6	-1	nt	30	14	0.4	9
O=C(Cc1c[nH]c2ccccc12)OCCOC(=O)Cc1c[nH]c2ccccc12	-10	15	nt	0.1	44	-5	nt	nt	nt	25
Cc1ccc(N(C(=O)Cc2cccs2)C(C(=O)NC2CCCC2)c2ccncc2)cc1 (centres undefined)	12	-1.7	i	?	-10	1	1	7	-0.2	-17
CC(=O)N1c2ccc(S(=O)(=O)N3CCCCC3)cc2CC1C(=O)Nc1ccc(C)cc1 (centres undefined)	3	-1.5	i	0.6	-1	nt	7	11	-2.8	-1
COc1ccc(OC)c(C2C3=C(CCCC3=O)Nc3nnnn32)c1 (centres undefined)	-2	nt	nt	7.6	-18	11	nt	nt	nt	-5
Clc1ccccc1CSc1snnc1-c1ccccc1	13	nt	nt	5.8	98*	-4	nt	nt	nt	18
COc1ccccc1C(=O)Nc1ccc2c(c1)nc(CCNC(=O)c1ccco1)n2C	-17	0.1	i	-0.8	nt	8	-1	3	-0.3	9
CC(=O)c1c(C)[nH]c(C(=O)OCC(=O)Nc2cccnc2Cl)c1C	nt	0.9	i	nt	-2	-7	-14	-7	-2.1	nt
Cn1c2ccccc2c2cc(C(=O)N3CCN(CCO)CC3)sc21	1	nt	nt	9.1	99*	nt	nt	nt	nt	-8
COc1ccc(Cc2nnc(SCC(=O)c3cccc([N+](=O)[O-])c3)n2C)cc1	6	-26	i	-1.4	?	-6	6	10	1.7	1
O=C(Nc1cc(S(=O)(=O)N2CCOCC2)ccc1N1CCOCC1)c1ccc(S(=O)(=O)N2CCCCC2)cc1	?	-2.1	i	2.5	12	6	6	1	-0.9	15
Cc1ccnc(NC(=O)c2cccc(NC(=O)CC3SC(N4CCCCC4)=NC3=O)c2)c1 (centres undefined)	nt	-3.9	i	nt	9	-2	nt	nt	nt	nt
CCC(C)C(=O)Nc1cc(OC)c(OC)cc1C(=O)O (centres undefined)	4	nt	nt	-3.0	-5	-2	nt	nt	nt	3
COc1ccc(S(=O)(=O)Cc2ccc(C(=O)O)o2)cc1	-8	-5.9	i	2.0	-2	0	9	16	1.0	-2
COc1ccc(Cl)cc1NC(=O)C(C)OC(=O)Cn1cc(C(F)(F)F)ccc1=O (centres undefined)	nt	-2.0	i	nt	-3	-5	17	4	0.8	nt
Cc1nc2ccn(Cc3ccccc3)c(=O)c2cc1C(=O)N1CCN(c2ccc(F)cc2)CC1	16	3.1	i	69*	-38	3	-28	-26	-2.8	15
CCc1nnc(NS(=O)(=O)c2ccc(N3C(=O)c4ccccc4C3=O)cc2)s1	-11	-5.6	i	0.2	4	0	11	3	4.5	35
CC(C)N(C(=O)CSc1nnc(CN2CCCCCC2=O)n1-c1ccccn1)C(C)C	4	nt	nt	0.5	-8	-7	nt	nt	nt	-2
C=CCN(CC=C)C(=O)C(=O)c1cc(C)n(-c2ccc([N+](=O)[O-])cc2)c1C	nt	nt	nt	0.1	3	-2	nt	nt	nt	-20
COc1ccc(NC(=O)CN2CCN(c3ccccc3)CC2)cc1	18	-1.1	nt	3.1	68	-3	3	4	3.3	0
CCCOc1ccc(C(=O)Nc2ccc(Cl)cn2)cc1	-5	nt	nt	-5.3	-1	9	nt	nt	nt	0
CCCOc1ccc(NC2=CC(=O)CC(C)(C)C2)cc1	17	-14	i	3.5	-8	nt	2	-1	-1.2	5
CCCCn1c(/C=C/c2ccco2)nc2ccccc21	7	6.2	i	1.6	nt	-4	15	7	1.1	-16
Cc1nc(SCc2ccc(F)cc2)c2oc3ccccc3c2n1	14	-3.9	i	4.6	2	-8	13	0	0.3	2
O=C1N=C(N2C=CC(=C3C=CNC=C3)C=C2)/C(=C/N=NC(=O)c2ccccc2)S1	-6	1.4	i	1.9	nt	2	0	9	-1.9	-1
O=C(COc1ccccc1)c1cn(CC(=O)N2CCOCC2)c2ccccc12	3	nt	nt	3.2	1	4	nt	nt	nt	-7
Cc1ccc(N2CC(C(=O)OCC(=O)c3c(N)n(CC(C)C)c(=O)n(C)c3=O)CC2=O)cc1 (centres undefined)	5	-1.1	i	5.9	nt	nt	-6	5	1.5	5
COc1cc(NC(=O)CN2CCCCC2)c(C)cc1[N+](=O)[O-]	-4	-1.1	i	-0.1	-20	-1	nt	nt	nt	-9
CC(=O)C1=C(C)OC(N)=C(C#N)C1c1cc([N+](=O)[O-])ccc1Cl (centres undefined)	-12	-0.5	i	-0.6	8	-1	7	-2	0.3	2
CC(=O)O/N=C(\N)c1cnn2c(C(F)(F)F)cc(C(F)(F)F)nc12	3	-0.1	i	8.3	-4	-2	nt	nt	nt	-14
COc1ccc(Cl)cc1C(=O)OCC(=O)NCc1cccs1	nt	-0.2	i	nt	0	-2	0	10	2.1	nt
CN(C(=O)c1ccc([N+](=O)[O-])cc1)c1ccccc1C(=O)NCc1ccccc1	-4	0.6	i	nt	-1	5	3	12	0.2	nt
Cc1[nH]c2ccccc2c1C(Nc1nccs1)c1ccncc1 (centres undefined)	7	nt	nt	2.6	54	-5	nt	nt	nt	-7
O=S(=O)(Nc1cc(C(F)(F)F)ccc1N1CCOCC1)c1ccccc1	18	-1.8	i	1.1	0	0	nt	nt	nt	-6
N/C(=N\OCc1ccc([N+](=O)[O-])cc1)c1ccncc1	-11	0.7	i	-0.6	-14	-9	1	4	-5.8	8
O=C1CCC(=O)N1CCSC(=S)N1CCSCC1	1	-8.4	i	-0.9	1	-1	5	-9	1.9	-10
CC(=O)Nc1ccc(N2CCCC2)cc1	-10	nt	nt	2.2	11	5	nt	nt	nt	0
COc1cc(OC)c(NC(=O)/C=C/C(=O)O)cc1Cl	-15	nt	i	2.0	nt	-8	11	3	1.3	-6
C/C(Cn1cnc([N+](=O)[O-])n1)=N\NC(=O)c1ccncc1	49	nt	nt	5.3	-16	-4	nt	nt	nt	3
Cc1c(NC(=O)CN2c3ccccc3CC2C)c(=O)n(-c2ccccc2)n1C (centres undefined)	16	-1.5	i	-3.9	97*	-7	9	0	6.0	9
COc1cccc(C(=O)Nc2nc(-c3ccc(S(=O)(=O)N4CCOCC4)cc3)cs2)c1	20	nt	nt	?	7	7	nt	nt	nt	-4
c1ccc(-c2cc(-c3ccccc3)ncn2)cc1	nt	-3.2	i	4.9	2	nt	-3	-34	-6.2	14

Single records (already shown). Order of values: T cruzi repl	AF4-AF9 inh	FGF22 binding	RanGTP-Imp inh	ALR inh	Beta apoptosis	rRNA inh HTS	rRNA inh HTS OD600	rRNA inh HTS RFP	Calb FLC
Entry for `COc1ccc(CCN2C(=O)CC(Nc3ccc(N4CCOCC4)cc3)C2=O)cc1OC` (centres undefined) → nt	nt	nt	-1.9	99*	-1	nt	nt	nt	-1
Entry for `COc1ccc(NC(=O)CN2CCN(c3ccccc3)CC2)cc1` → 18	-1.1	nt	3.1	68	-3	3	4	3.3	0
Entry for `CC(C)N(C(=O)CSc1nnc(CN2CCCCCC2=O)n1-c1ccccn1)C(C)C` → 4	nt	nt	0.5	-8	-7	nt	nt	nt	-2
Entry for `O=C(COc1ccccc1)c1cn(CC(=O)N2CCOCC2)c2ccccc12` → 3	nt	nt	3.2	1	4	nt	nt	nt	-7
Entry for `COc1ccccc1C(=O)Nc1ccc2c(c1)nc(CCNC(=O)c1ccco1)n2C` → -17	0.1	i	-0.8	nt	8	-1	3	-0.3	9

Screening data deposited in PubChem by Broad Institute.

Some of the compounds tested; the hit share may differ from the screen's.
